Assay outcomes: PubChem, several laboratories
PrP 5UTR inh: inhibition of PrP 5' UTR reporter expression | 0.35% of 340,000 active | inhibition, % (test concentration not listed) | AID 488862, 2010 | cell-based PrP 5' UTR mRNA reporter, plate reader;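 active = every replicate at 50% or more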;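 note: 0 = median of the neutral control wells; tested in H4 reporter cells; numbers are from one replicate; inactives centre near -14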
BJeLR lethal: MLPCN primary cell-based screen for lethality selective to Ras in HRASV12 cells; BJeLR (HRASV12) viability, CellTiter-Glo ATP luminescence, 48 h; reference of the scale not given here; inhibition, % (concentration not given with the values); 0.17% of 300,000 active;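 active = replicate mean above 50%; inconclusive = above 50% but judged a plate artefact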;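 note: 50 nL library stock added to about 25 µL; numbers are from one replicate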
Mtb hypoxia rep: PubChem AID 1159583; M. tuberculosis hypoxia-regulated fluorescent reporter, fluorescence; fluorescence inhibition, % (test concentration not listed); 0.1% of 300,000 active;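 active = 35 to 45% if threefold the growth effect, above 45% if 1.5-fold the growth effect; inactive = the rest, general growth blockers included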;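 note: wells of about 50 µL received 100 nL stock; 0% = vehicle wells and 100% = reference inhibitor wells; whole bacteria with a GFP reporter of the hypoxia response; strong numbers were not always called active; many hits fall short of the cut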
ugtP null kill: growth inhibition of ugtP-null S. aureus, primary screen, RN4220 ugtP deletion, OD600; 16 h; some inactives read as strong as hits; growth inhibition, % (test concentration not listed); 0.54% of 330,000 active; AID 1259309, 2017;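 active = z-score under -3 and OD600 up to 0.15 on both plates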;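 note: plate controls were untreated wells for no effect and antibiotic for full effect; wells of about 80 µL received 100 nL stock; the first replicate is given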
RN4220 kill: growth inhibition of S. aureus RN4220, primary screen, OD600; 16 h; inhibition, % (test concentration not listed); 0.33% of 330,000 active;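 active = z-score of -3 or lower and OD600 up to 0.18 on both plates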;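 note: plate controls were untreated cells for no effect and reference antibiotic for full effect; stock transfer was 100 nL into about 80 µL; one replicate is shown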
Autofluor counter: compound fluorescence in toxin protease inhibitor counterscreen; compound autofluorescence counterscreen, microsphere flow cytometry; stronger effect = higher value; fluorescence intensity (no concentration beside the values); 3.1% of 360,000 active; AID 624483;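 active = at least 3 SD above the mean of all compounds, about 16000 in these data; inconclusive = too few beads counted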;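 note: 100 nL of 1 mM stock went into each well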
Mtb hypoxia rep growth: further read-out of Mtb hypoxia rep, marked with its call; growth inhibition, %; measured here: M. tuberculosis growth (absorbance);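 0% = vehicle and 100% = reference antibiotic; read after six days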
Active calls of the source: *; ? = inconclusive; . = no result given; & = joins results of further samples; ! = not active in a repeat.

SMILES	PrP 5UTR inh	BJeLR lethal	Mtb hypoxia rep	Mtb hypoxia rep growth	ugtP null kill	RN4220 kill	Autofluor counter
CC(=O)n1cc(Nc2ccc([N+](=O)[O-])cc2)c2ccccc21	-14	0	.	.	.	.	3663
Cc1occc1C(=O)NNC(=S)NCc1ccccc1	3	-14	-8	2	-1	0.7	2078
O=C(NCC(c1cccs1)N1CCOCC1)c1ccccc1NS(=O)(=O)c1ccc(Cl)cc1 (stereo unspecified)	-20	0	4	2	-3	18	2356
CCOC(=O)C(=Cc1ccc(-n2ccnc2)cc1)C(=O)OCC	8	0	-2	10	-4	-5.1	2211
CCOC(=O)c1cnc(SC)nc1Oc1cccc(NS(=O)(=O)c2ccc(Cl)cc2)c1	-21	-3	6	11	-4	9.6	4348
O=C(CN1CCN(c2ccc(Cl)cc2)CC1)N1CCCC1	-11	-3	.	.	4	-2.3	3113
Fc1ccc(CN2CCN3CCCC3C2C2CCCCC2)cc1F (stereo unspecified)	5	.	.	.	-3	-2.8	4800
CC(C)Cc1nc2oc3c(NCC(C)O)ncnc3c2c2c1CCCC2 (stereo unspecified)	0	-11	3	1	1	-2.4	3684
CC1=C(CCN2CCN(C(C)C)C(CCO)C2)C(C)(C)CCC1 (stereo unspecified)	17	5	-1	4	1	0.6	2891
CCS(=O)CCSC(=N)N (stereo unspecified)	-14	0	16	9	1	7.6	2384
Cc1ccc(Sc2ccc(C=C3C(=O)N(C)C(=O)N(C)C3=O)o2)cc1	-27	12	3	2	2	2.7	4500
O=C(OCc1nc2ccccc2s1)c1cnccn1	-8	1	9	-1	-8	4.0	3293
NC(=O)c1ccccc1N/C=C1\CCCCC1=O	-7	2	16	7	-4	5.3	2380
Cc1ccccc1C(=O)Nc1ccc(N2CCCC2)cc1	-28	5	1	14	12	12	3355
CCOc1cc(C=C2C(=O)ON=C2C)ccc1OCc1ccccc1	.	.	0	7	3	5.5	.
COc1ccccc1CNC1CCN(Cc2ccccc2)CC1	-14	4	-4	-5	2	1.1	.
CSc1ccc(S(=O)(=O)NCC(=O)OCC(=O)NC2(C#N)CCCCC2)cc1[N+](=O)[O-]	2	-7	-8	0	2	0.4	7366
COCC(=O)N(C)C[C@H]1N[C@@](Cc2ccccc2)(C(=O)OC)[C@H]2C(=O)N(Cc3ccccc3)C(=O)[C@@H]12	-12	.	-7	11	3	2.0	3482
CN1CCN(S(=O)(=O)c2cccc(C(=O)N(C)Cc3cccs3)c2)CC1	-10	.	12	2	7	3.9	3208
NC(=O)C1CCN(C(=O)c2cc3c(s2)CCCC3)CC1	-33	-1	8	-2	-2	1.3	4057
O=C(Nc1cccc(C(F)(F)F)c1)C1CCCO1 (stereo unspecified)	-13	-3	10	-1	4	2.2	2768
Cc1cccc(OCC(=O)OCC(=O)c2c(N)n(C)c(=O)n(C)c2=O)c1	-25	4	10	8	-1	-7.5	3401
CCCCN(C(=O)CSCC(=O)Nc1ccc(C)cc1)c1c(N)n(CC(C)C)c(=O)[nH]c1=O	-6	.	0	-5	7	1.6	3606
CC(C)OC(=O)c1nn2c(C(F)(F)F)cc(-c3ccc(Br)o3)nc2c1Br	-14	10	7	2	15	9.0	20340*
CCc1ccc2nc(NC(=O)C3CSC4(C)CCC(=O)N34)sc2c1 (stereo unspecified)	-35	-8	4	5	8	2.2	5967

Quoted from the listing.
`CC(C)OC(=O)c1nn2c(C(F)(F)F)cc(-c3ccc(Br)o3)nc2c1Br` – ugtP null kill = 15
`O=C(CN1CCN(c2ccc(Cl)cc2)CC1)N1CCCC1` – ugtP null kill = 4
`CN1CCN(S(=O)(=O)c2cccc(C(=O)N(C)Cc3cccs3)c2)CC1` – PrP 5UTR inh = -10
`CCOc1cc(C=C2C(=O)ON=C2C)ccc1OCc1ccccc1` – ugtP null kill = 3
`O=C(Nc1cccc(C(F)(F)F)c1)C1CCCO1` (stereo unspecified) – PrP 5UTR inh = -13
`Cc1occc1C(=O)NNC(=S)NCc1ccccc1` – Mtb hypoxia rep = -8

Further entries follow.
SMILES	PrP 5UTR inh	BJeLR lethal	Mtb hypoxia rep	Mtb hypoxia rep growth	ugtP null kill	RN4220 kill	Autofluor counter
COc1ccc(C=NNC(=O)c2cc(-c3ccccc3)nc3ccccc23)cc1O	.	.	8	2	3	-2.7	.
COc1ccc(OC)c(Nc2nc(-c3sc(C)nc3C)cs2)c1	-29	2	2	11	-7	1.1	3886
Nc1ccn(Cc2cccc(Cl)c2)n1	-12	6	7	-8	2	0.6	2045
CCc1ccccc1NC(=O)CN(C)Cc1nc(N)nc(Nc2ccccc2C)n1	-9	-5	9	14	-1	6.8	8851
CCCn1c(CN2CCN(C(=O)OCC)CC2)nc2cc([N+](=O)[O-])ccc21	-14	-9	10	9	6	3.8	3515
CCc1ccc(Nc2n[n+](-c3ccccc3)c(-c3ccc(OC)c(Br)c3)s2)cc1	-9	9	0	9	-1	0.8	3811
Fc1cccc(F)c1-c1nc(-c2ccc(Cl)cc2)no1	-77	-2	12	-1	31	-12	6653
CCOC(=O)C1C2COc3ccccc3C2N2C(=O)N(c3ccc(C(F)(F)F)cc3)C(=O)[C@]12C (stereo partly specified)	.	.	-1&8	4&5	100*!	101*!	.
CCOC(=O)CNC(=O)C1(/C=C/c2ccccc2)CC(=O)N1c1ccc(C)cc1 (stereo unspecified)	-8	-1	3	5	1	0.6	3084
O=C(CCc1nnc(CCCCc2ccccc2)o1)NCCCc1cccnc1	-38	5	10	6	5	2.2	5393
COc1ccc(-n2c(N)c(C(=O)NCc3ccco3)c3nc4ccccc4nc32)cc1OC	-4	4	-15	8	6	-0.9	2214
COc1cc2c(cc1Cl)C(=CCCN(C)C)c1ccccc1S2	.	.	19	21	1	-3.1	.
Cc1cc(C)c(NC(=O)CSc2nnc(CN3CCOCC3)n2C)c(C)c1	-6	9	-8	5	-2	-1.5	6024
Cc1nc2ccccn2c1C(=O)N=Nc1c(O)n(CCC(C)C)c2ccccc12	4	5	-1	1	1	21	9690
CN(C)C(=S)Nc1ccc(N2CCOCC2)cc1	-41	-6	2	11	0	2.8	.
CCn1c(C)cc2c(c1=O)C(c1ccc3c(c1)OCO3)C(C#N)=C(N)O2 (stereo unspecified)	-26	12	6	3	4	4.4	16080
CCCCN(c1ccccc1)S(=O)(=O)c1ccc2c(c1)CCN2C(=O)CCC(=O)O	6	5	4	-2	31	19	22207*
Cc1cc(C(=O)NN=C2CC(=O)c3ccccc32)c(C)n1-c1ccc(F)cc1	.	.	4	-1	-1	4.7	.
O=C(Nc1ccccn1)c1ccc(Cl)c(S(=O)(=O)N2CCc3ccccc32)c1	0	.	-6	7	-15	-2.7	3823
O=C(NCC1CCCO1)c1cc2ccccc2[nH]1 (stereo unspecified)	-20	11	9	10	-2	7.1	2549
CCc1ccc(N(CC)C(=O)Cc2c(C(=O)O)n(C)c3ccccc23)cc1	-4	0	19	7	2	12	3891
COc1ccccc1CNC(=O)Cn1cccc1C(=O)c1ccccc1C	-27	2	-13	-7	0	2.6	6569
CSCCC(NC(=O)c1ccccc1)C(=O)N1CC(C)OC(C)C1 (stereo unspecified)	0	.	3	0	7	5.7	4054
Cc1cc[n+](CC(=O)c2cccc([N+](=O)[O-])c2)c2ccccc12	-40	-12	7	-2	2	0.7	2656
CCOc1cc(N2CCOCC2)c(OCC)cc1NC(=O)c1ccccc1	-10	-3	5	13	7	8.6	4200
(continued)
SMILES	PrP 5UTR inh	BJeLR lethal	Mtb hypoxia rep	Mtb hypoxia rep growth	ugtP null kill	RN4220 kill	Autofluor counter
Cn1c(=O)c2cc(S(=O)(=O)NCCC(=O)NC3CCCCCC3)ccc2n(C)c1=O	-25	-8	2	3	8	5.3	9098
COC(=O)C1=CN(Cc2ccccc2)C=C(C(=O)OC)C1c1ccc(OC)c(OC)c1	-13	5	-8	-10	4	4.2	3441
O=[N+]([O-])c1ccc(N2CCN(S(=O)(=O)c3ccc4ccccc4c3)CC2)cc1NCc1ccco1	-7	-22	.	.	-10	-2.6	2764
Brc1ccc(-c2cnnc(N3CCCC3)n2)cc1	-12	8	.	.	-18	-4.4	3028
CCN1C(Nc2ccccc2)=NCC1C (stereo unspecified)	.	.	6	9	-10	5.5	.
CCc1ccc(/C=N/NC(=O)c2nnn(-c3nonc3N)c2C(C)C)cc1	-20	-7	.	.	.	.	4491
COC(=O)c1cc(S(=O)(=O)NCc2ccccc2Cl)c[nH]1	-37	-2	2	8	-4	6.6	6509
C=CCn1c(-c2cccc([N+](=O)[O-])c2)n[nH]c1=S	-25	8	8	10	7	4.0	2426
CCOc1cc(C2C3=C(CC(C)(C)CC3=O)N(CCOC)C3=C2C(=O)CC(C)(C)C3)ccc1O	-31	-3	2	-3	2	3.0	3947
CCn1nc(C)c(C=NNC(=O)Cn2nnnc2N)c1C	.	.	-12	-7	2	1.5	.
COc1cc(/C=N/NC(=O)CCC(=O)NCc2ccccc2)cc(OC)c1OC	-36	3	.	.	.	.	2221
Cc1ccc(-c2cc(C(=O)N3CCOCC3)c3ccccc3n2)o1	-24	.	11	11	1	4.0	4194
O=C(COC(=O)c1cc(Cl)ccc1O)Nc1ccccc1C(=O)NC1CC1	-4	.	-4	-4	-1	-0.5	.
COc1ccc(N2C(=O)[C@@H]3[C@H](C2=O)[C@H](C(=O)c2ccc(OC(C)=O)cc2)N2N=CC=C[C@@H]32)cc1	.	1	5	17	-2	2.9	.
CCOC(=O)c1ccccc1NC(=O)COC(=O)CCNS(=O)(=O)c1ccc(C)c(C)c1	-19	2	3	-3	-1	3.6	6708
O=c1[nH]c(SCc2n[nH]c(=S)n2-c2ccccc2)nc2ccccc12	-6	9	.	.	1	6.9	2091
CCCCS(=O)CC(CS(=O)CCCC)OC(=O)c1ccccc1 (stereo unspecified)	-24	4	8	5	0	-1.6	4409
CNC(=O)O/N=C(\N)Cc1csc2ccccc12	-17	-2	.	.	.	.	4360
CCN(CC(=O)NCc1ccc(F)cc1)C(=O)c1oc2ccccc2c1C	-25	-5	9	11	9	-1.1	3898
Cc1c(C(=O)O)oc2c1C(O)CC(C)(C)C2 (stereo unspecified)	-15&-28	0&-8	-3	3	2&4	5.3&2.7	16667*!
Cc1c(C(=O)NCCCN2CCCCC2)oc2ccc3c(c12)C(O)CC1(CCCCC1)O3 (stereo unspecified)	-9	14	-2	9	-10	-3.2	5880
CCn1cc(C(=O)NCCCN(CC(C)C)CC(C)C)c(=O)c2cc(S(=O)(=O)N3CCOCC3)ccc21	-21	9	-3	8	-5	-1.2	5556
O=C(c1ccccc1)c1ccc(OCCO)cc1	48	.	16	-2	9	5.5	3220
C(=N\Nc1nc2ccccc2[nH]1)/C1CCCCC1	-48	10	.	.	.	.	3567
O=C(N/C(=C\c1ccccc1)C(=O)N1CCCCC1)c1ccco1	-26	-6	3	3	4	-0.8	3656

Results in ugtP null kill and PrP 5UTR inh, for some of the entries so far:
| SMILES | ugtP null kill | PrP 5UTR inh |
| --- | --- | --- |
| CCn1nc(C)c(C=NNC(=O)Cn2nnnc2N)c1C | 2 | . |
| COc1cc(/C=N/NC(=O)CCC(=O)NCc2ccccc2)cc(OC)c1OC | . | -36 |
| Cc1ccc(-c2cc(C(=O)N3CCOCC3)c3ccccc3n2)o1 | 1 | -24 |
| O=C(COC(=O)c1cc(Cl)ccc1O)Nc1ccccc1C(=O)NC1CC1 | -1 | -4 |

(further entries)
SMILES	PrP 5UTR inh	BJeLR lethal	Mtb hypoxia rep	Mtb hypoxia rep growth	ugtP null kill	RN4220 kill	Autofluor counter
O=C1c2[nH]nc(-c3ccccc3O)c2C(c2cccc(Cl)c2)N1Cc1ccco1 (stereo unspecified)	-8	9	-3	-4	-39	14	13459
COc1ccc2c(c1)c(C(=O)CN1CCN(c3ccccc3)CC1)c(C)n2C	.	2	-5	-1	-5	4.1	.
CC1CN(S(=O)(=O)c2cn(C)c(=O)n(C)c2=O)CC(C)O1 (stereo unspecified)	-8	-3	4	4	-4	3.5	4322
CCCCOC(=O)Cn1c2ccc(OC)cc2c2nc3ccccc3nc21	-18	-5	2	3	-3	5.8	12443
CC(C)=CCN1CCN(Cc2cc(CC(C)C)n[nH]2)CC1CCO (stereo unspecified)	-9	7	6	2	0	0.4	4762
CCn1cc(C2=NC(CC(C)C)CO2)c2ccccc21 (stereo unspecified)	-29	-6	-14	6	2	-0.7	4818
CCN(CC)/C(=N/S(=O)(=O)c1ccc(C)cc1)c1ccccc1	-10	5	.	.	.	.	2947
O=C(CCCOc1ccc(Cl)cc1Cl)NCCc1nnc2ccccn12	-16	-8	-2	2	-2	4.2	5224
CCCCN(C(=O)c1ccco1)C1CCS(=O)(=O)C1 (stereo unspecified)	-9	4	3	-4	3	3.0	?

Compounds were not picked by outcome; 4.1% or so of the library scored in one or more.
